# Assay outcomes (PubChem)
# GIRK2 activ: GIRK2 channel activation; P48051; HEK293-GIRK2 thallium flux, Thallos fluorescence; calls only for hits at 25 µM; 63,000 tested, 0.05% active; AID 1259325;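 active means among the strongest 0.2% of first-round signals and kept after retests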;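 further: first round at about 10 µM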
# Target sequence (P48051 whole entry, looked up): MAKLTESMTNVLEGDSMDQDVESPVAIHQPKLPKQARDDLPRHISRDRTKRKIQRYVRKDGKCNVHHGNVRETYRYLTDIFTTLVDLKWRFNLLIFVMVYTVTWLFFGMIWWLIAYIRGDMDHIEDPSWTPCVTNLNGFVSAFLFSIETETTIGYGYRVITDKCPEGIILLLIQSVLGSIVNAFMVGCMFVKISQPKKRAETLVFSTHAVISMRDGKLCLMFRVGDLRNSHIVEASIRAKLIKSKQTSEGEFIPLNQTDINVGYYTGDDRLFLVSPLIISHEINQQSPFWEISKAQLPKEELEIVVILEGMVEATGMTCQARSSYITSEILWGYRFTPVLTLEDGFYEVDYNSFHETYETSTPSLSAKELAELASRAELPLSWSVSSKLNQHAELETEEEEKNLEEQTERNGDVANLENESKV
# Calls only; i = inactive.
entry	Structure	GIRK2 activ
1	O=C(NCc1ccc2c(c1)OCO2)c1csc(-c2cnccn2)n1	i
2	COC(=O)c1cc(OC)c(OC)cc1NC(=O)c1sc2nc(C)ccc2c1N	i
3	COc1ncc(C(=O)N2CCc3ccccc3C2)cn1	i
4	O=C(c1ccc(F)c(F)c1)N1CCCC(c2nnc(-c3cccs3)o2)C1 (centres undefined)	i
5	O=C(Nc1cc(N2CCCC2)ncn1)C1CCCN(c2ccc(-c3cccs3)nn2)C1 (centres undefined)	i
6	CN(CC#CCNC(=O)Cc1cccc2ccccc12)Cc1ccccc1	i
7	COCCn1c(C(=O)Nc2ccccc2C(N)=O)cc2c(=O)n(C)c(=O)n(C)c21	i
8	COC(=O)C1CCN(C(=O)Cc2c(C)nc(SCc3ccccc3F)[nH]c2=O)CC1	i
9	CCn1c(=O)c2c(nc3n(C(C)C)c(C)cn23)n(C)c1=O	i
10	COc1ccc(S(=O)(=O)Nc2ccc(C(=O)Nc3sc4c(c3C(N)=O)CCCCC4)cc2)cc1	i
11	O=C(Nc1nc(C(=O)Nc2nc3ccc(Cl)cc3s2)co1)c1ccccc1	i
12	CCn1c(C)c(C(C)=O)c2cc(OCC(O)CNC(C)c3ccccc3)ccc21 (centres undefined)	i
13	O=C(Nc1nc2c(s1)CN(C(=O)C1COc3ccccc3O1)CC2)c1ccco1 (centres undefined)	i
14	Cc1nc(-c2nnc(NC(=O)c3nc4ccccc4s3)o2)cs1	i
15	Cc1cccc(C)c1NC(=O)CN1CN(c2cccc(F)c2)c2ncccc2S1(=O)=O	i
16	Cc1nn2c(N3CCN(C(=O)c4ccco4)CC3)cc(C(C)(C)C)nc2c1-c1ccccc1	i
17	CCOC(=O)c1c(NCc2ccc3c(c2)OCO3)c2cccc(Cl)c2[nH]c1=O	i
18	COC(=O)COc1cc(-c2ccc(Cl)cc2)nc2ccc([N+](=O)[O-])cc12	i
19	N#Cc1ccc(Cl)cc1NC(=O)C1CCN(c2ccc(-c3cccs3)nn2)CC1	i
20	O=C(Cn1cnc(-c2noc(-c3ccncc3)n2)c1)Nc1cccc(Cl)c1	i
21	CCOc1ccc2cc(S(=O)(=O)N3CCCCC3)ccc2c1	i
22	OC[C@H]1O[C@@H](Oc2cc(O)cc(/C=C/c3ccc(O)cc3)c2)[C@H](O)[C@@H](O)[C@@H]1O	i
23	O=C(NCCOc1cc(N2CCCC2)ncn1)Nc1ccc(Cl)c(Cl)c1	i
24	COc1ccc2nc(NC(=O)CCS(=O)(=O)Cc3ccccc3)sc2c1	i
25	Cc1ccc(NC(=O)N2CCC(c3nc4ccccc4[nH]3)CC2)cc1C	i
26	COC(=O)c1cn(Cc2cccc(C#N)c2)nc1S(=O)(=O)N1CCCCC1	i
27	CC(C)(Oc1ccc(Cl)cc1)C(=O)N1CCC(Oc2ccccn2)CC1	i
28	CC(=O)CC1(O)C(=O)N(CCC(C)C)c2c(C)cccc21 (centres undefined)	i
29	Cc1cn2c3c(=O)n(CCCc4ccccc4)c(=O)n(C)c3nc2n1CCO	i
30	Cc1cccc(CS(=O)(=O)N2CCC(Oc3ccc(C#N)cn3)CC2)c1	i
31	Cc1nccn1CC1CCN(C(=O)Cc2ccccc2)CC1	i
32	Cc1ccc(-c2noc(-c3cn(CC(=O)NC4CCCCC4)c4nc(C)ccc4c3=O)n2)cc1	i
33	COc1cccc(C2=NN(C(=O)c3ccc(F)cc3)C(c3cccc4nccnc34)C2)c1 (centres undefined)	i
34	O=C(Nc1cc(N2CCOCC2)ncn1)c1cc(C2CC2)on1	i
35	O=C(Cc1cccs1)NCCn1ncc2c(N3CCN(c4ccccc4)CC3)ncnc21	i
36	O=C(NC1CC(=O)N(c2ccc(F)cc2)C1)c1ccccc1Cl (centres undefined)	i
37	CC(C)(Oc1ccc(Cl)cc1)C(=O)NCC#CCOc1ccccc1C(N)=O	i
38	CCN1C(SCC(=O)N2CCN(c3ccccc3)CC2)=NS(=O)(=O)c2ccccc21	i
39	Cc1ccc(N2CCN(S(C)(=O)=O)CC2)nn1	i
40	CC(=O)c1cccc(NC(=O)C2CCN(c3ccc(-c4ccco4)nn3)CC2)c1	i

# Laid out differently: 3 of the compounds above.
29. Cc1cn2c3c(=O)n(CCCc4ccccc4)c(=O)n(C)c3nc2n1CCO
  GIRK2 activ = i
30. Cc1cccc(CS(=O)(=O)N2CCC(Oc3ccc(C#N)cn3)CC2)c1
  GIRK2 activ = i
31. Cc1nccn1CC1CCN(C(=O)Cc2ccccc2)CC1
  GIRK2 activ = i

# A stretch of the results above, as a working copy:
entry	Structure	GIRK2 activ
34	O=C(Nc1cc(N2CCOCC2)ncn1)c1cc(C2CC2)on1	i
35	O=C(Cc1cccs1)NCCn1ncc2c(N3CCN(c4ccccc4)CC3)ncnc21	i
36	O=C(NC1CC(=O)N(c2ccc(F)cc2)C1)c1ccccc1Cl (centres undefined)	i

# Additional records follow.
entry	Structure	GIRK2 activ
41	COc1ccc(OC)c(-c2cc3ccc(OCC(N)=O)cc3oc2=O)c1	i
42	CCCOc1ccc(-c2nc(C#N)c(N3CCN(C(=O)c4ccccc4)CC3)o2)cc1	i
43	CCCc1nnsc1C(=O)Nc1nnc(-c2ccccc2OC)o1	i
44	Cc1ccc(C)c(OC(C)C(=O)NCCOc2cc(N3CCCC3)ncn2)c1 (centres undefined)	i
45	Cc1cnc(C(=O)N2CCN(C3CCCCC3)CC2)cn1	i
46	O=C(Nc1cccc(C(F)(F)F)c1)c1coc(NC(=O)C2CC2)n1	i
47	Cc1nc(-n2nc(C3CC3)cc2NC(=O)Cc2cccs2)[nH]c(=O)c1C	i
48	CC(C)CC(=O)Nc1cccc(-c2ccn[nH]2)c1	i
49	Fc1cccc(Cl)c1CN1CC(c2nc(-c3ncccn3)no2)C1	i
50	O=C(Cn1nc(C(=O)N2CCOCC2)cc1C1CC1)Nc1cccc(C(F)(F)F)c1	i
51	O=c1cc(-c2ccc(F)cc2)ncn1CCNS(=O)(=O)c1ccc2c(c1)CCCC2	i
52	CC(=O)Nc1cc(-c2cccs2)nn1-c1nc(-c2ccccc2)cc(=O)[nH]1	i
53	COc1ccccc1N1CCN(CCNS(=O)(=O)c2ccc(Cl)s2)CC1	i
54	CCn1c(=O)c2c(nc3n2CCCN3Cc2ccco2)n(C)c1=O	i
55	O=C(CSCc1ccccc1)N1CC(c2nc3ccccc3[nH]2)C1	i
56	CCOC(=O)C1CCc2sc(NC(=O)CN(C)c3nc4c(OC)cccc4s3)nc21 (centres undefined)	i

# Later entries
no.	SMILES	GIRK2 activ
57	O=C(c1cccc(S(=O)(=O)N2CCOCC2)c1)N1CCCc2ccccc21	i
58	Cc1cc(C)n(-c2cc(N3CCCC(C(=O)NCc4sc(C)nc4C)C3)ncn2)n1 (centres undefined)	i
59	COc1ccc(NC(=O)Cn2cc(S(=O)(=O)c3ccccc3)c(=O)c3cc4c(cc32)OCO4)cc1	i
60	COC(=O)COc1ccc2c(=O)c(-c3ccc(OC)cc3)coc2c1	i
61	O=C(/C=C/c1cccs1)NCc1nc(-c2ccccc2)no1	i
62	O=C(NCc1cccc(Cl)c1)c1cccc(-n2c(=S)[nH]c3ccccc3c2=O)c1	i
63	Cc1ccc(CSc2nc(CC(=O)NCc3nc4ccccc4[nH]3)cs2)cc1	i
64	O=C(CN1C(=O)CCC1=O)NCC1(c2ccccc2)CCOCC1	i
65	Cc1cc(-c2nnc(NC(=O)c3ccc(=O)n(C)n3)o2)c(C)o1	i
66	O=C(c1ccc(F)cc1)N1CCc2cc(S(=O)(=O)N3CCOCC3)ccc21	i
67	CC(=O)Oc1c[nH]c2ccccc12	i
68	COc1ccc(F)cc1S(=O)(=O)N1CCc2nc(NC(=O)c3ccco3)sc2C1	i
69	COc1cc(OC)cc(-c2noc(-c3ccc4c(=O)n(Cc5ccccc5F)c(=O)[nH]c4c3)n2)c1	i
70	COc1ccc2c(c1)c(CC(=O)NC(C)c1ccncc1)c(C)n2C(=O)c1ccc(Cl)cc1 (centres undefined)	i
71	CS(=O)(=O)N1CCCc2ccc(N)cc21	i
72	CCOC(=O)N1CCN(C(=O)CSc2nnc(C)c3cnn(-c4ccccc4OC)c23)CC1	i
73	O=C(Nc1nc2ccccc2[nH]1)c1ccc(-n2ccnc2)nn1	i
74	O=C(NCc1ccc(F)cc1Cl)C1CCN(c2ncccc2S(=O)(=O)N2CCOCC2)CC1	i
75	Cc1cc(C)n(CC(=O)Nc2ccc(OCc3ccccc3)cc2)c(=O)c1C#N	i
76	CCOC(=O)c1c(N/C=C(/C#N)c2nc(-c3ccccc3)cs2)sc(C(C)=O)c1C	i
77	Cn1nc(C2CCN(Cc3ccccc3C#N)CC2)n(-c2ccccc2)c1=O	i
78	Cn1c(=O)c2c(nc3n(CCc4ccccc4)c(C(C)(C)C)cn23)n(C)c1=O	i
79	COc1ccc(-n2c(C)cn3c4c(=O)n(CC(C)C)c(=O)n(C)c4nc23)cc1	i
80	O=C(c1cc2ccccc2o1)N1CCC(COCc2ccc(F)cc2)CC1	i
81	N#Cc1nc(-c2ccco2)oc1N1CCN(C(=O)c2ccc(Cl)cc2)CC1	i
82	Cc1cc(OCC(=O)NCc2ccccc2Br)nc(N2CCCCC2)n1	i
83	O=S(=O)(NCC1(O)CCOCC1)c1ccc(N2CCCCS2(=O)=O)cc1	i
84	Cn1c(NC(=O)C2CCCC2)cc(=O)n(C)c1=O	i
85	O=C(CSC1CCCC1)N1CCC(Oc2ncccc2Cl)CC1	i
86	CN1CCC(CNC(=O)Nc2ccc(C(C)(C)C)cc2)CC1	i

# Five records picked at random from those above:
no.	SMILES	GIRK2 activ
68	COc1ccc(F)cc1S(=O)(=O)N1CCc2nc(NC(=O)c3ccco3)sc2C1	i
81	N#Cc1nc(-c2ccco2)oc1N1CCN(C(=O)c2ccc(Cl)cc2)CC1	i
67	CC(=O)Oc1c[nH]c2ccccc12	i
63	Cc1ccc(CSc2nc(CC(=O)NCc3nc4ccccc4[nH]3)cs2)cc1	i
59	COc1ccc(NC(=O)Cn2cc(S(=O)(=O)c3ccccc3)c(=O)c3cc4c(cc32)OCO4)cc1	i

# Additional results:
no.	SMILES	GIRK2 activ
87	O=c1c(S(=O)(=O)N2CCCCCC2)cccn1Cc1cccc(C(F)(F)F)c1	i
88	CC(=O)NC1C(=O)N(CCCOc2ccccc2Cl)c2ccc(C)cc21 (centres undefined)	i
89	O=C(Nc1ccc2c(c1)OCCO2)c1cn(-c2cc(N3CCSCC3)ncn2)cn1	i
90	Cc1nc2ccc(NC(=O)c3ccco3)cc2c(=O)n1-c1ccc(F)cc1	i
91	Cc1ccc(C)c2sc(N(C)CC(=O)NCc3cccs3)nc12	i
92	COc1ccc(NC(=O)c2cc(=O)c3cc(OC)ccc3o2)cc1	i
93	Cc1cc(C)n(CC(=O)Nc2cc(F)ccc2F)c(=O)c1-c1nc(-c2ccc(F)cc2)no1	i
94	COc1cc(OC)cc(C(=O)N2CCN(CC(F)(F)F)CC2)c1	i
95	Cc1cc2c(SCC(=O)c3cc4ccccc4o3)ncnc2s1	i
96	COc1ccccc1Oc1c(C)oc2cc(OCC(=O)OCc3ccccc3)ccc2c1=O	i
97	CCCCn1c(SCC(=O)NC(C)C)nc2c(-c3ccccc3)c[nH]c2c1=O	i
98	CSc1cccc(NC(=O)Cn2cccc(S(=O)(=O)N3CCCCC3)c2=O)c1	i
99	O=C(Cn1c(=O)cc(-c2nc(C3CC3)no2)c2ccccc21)NCc1ccccc1Cl	i
100	CN(C)c1ccc(C=Nc2ccccc2NC(=O)C2CCC(C)(C(=O)O)C2(C)C)cc1 (centres undefined)	i
101	COc1ccc(-c2c(C#N)c(N)nc3c2CN(C)CC3)c(OC)c1	i
102	COc1ccccc1-c1c(C(F)(F)F)oc2cc(OC(=O)C3CC3)ccc2c1=O	i
103	O=C(NCC(F)(F)F)C(=O)NCC(O)(c1ccccc1)C1CC1 (centres undefined)	i
104	NS(=O)(=O)c1ccc(CNC(=O)CSc2nnc(CCc3nc4ccccc4s3)o2)cc1	i
105	COc1ccc(-c2noc(-c3cccn(CC(=O)Nc4c(C)cccc4C)c3=O)n2)cc1OC	i
106	CCCCNS(=O)(=O)c1cccc2cccnc12	i
107	Cc1cn2c3c(=O)[nH]c(=O)n(C)c3nc2n1CCCNc1ccc(Br)cc1	i
108	CC(C)OC(=O)COC(=O)c1cn(-c2cccc(Cl)c2)c(=O)c2ccccc12	i
109	NS(=O)(=O)c1ccc(CCNC(=O)CCn2c(=O)[nH]c3ccccc3c2=O)cc1	i
110	CCc1ccc(S(=O)(=O)N2CCCC(c3nnc(C(F)(F)F)o3)C2)cc1 (centres undefined)	i
111	Cc1cc(C)c(S(=O)(=O)N2CCCOC2CNC(=O)C(=O)NCCN2CCOCC2)c(C)c1 (centres undefined)	i
112	COc1cc(S(=O)(=O)N2CC(C)CC(C)C2)ccc1F (centres undefined)	i
113	CN(C)C(CNC(=O)c1cc(-c2ccc(F)cc2)nn1C)c1cn(C)c2ccccc12 (centres undefined)	i
114	COc1ccc2oc(=O)c(C(=O)OC(C)C(=O)c3ccc(Cl)cc3)cc2c1 (centres undefined)	i
115	COC(=O)c1sc2ccccc2c1S(=O)(=O)Nc1ccc2c(c1)OCCO2	i
116	Cc1nn2c(SCC(N)=O)cc(C(C)(C)C)nc2c1-c1ccccc1	i
117	O=C(Nc1ccc(S(=O)(=O)Nc2nccs2)cc1)c1cc(=O)c(OCc2ccccc2)c[nH]1	i
118	CCOc1ccc(-n2ccn3c(CC(C)CC(=O)NCc4ccc(C)cc4)nnc3c2=O)cc1 (centres undefined)	i
119	COc1ccc(-c2ccc(N3CCCC(C(=O)NCCc4c[nH]c5ccccc45)C3)nn2)cc1 (centres undefined)	i
120	CCOC(=O)COc1c(C#N)cccc1OC	i
121	COc1coc(C(=O)N2CCN(c3cccc(C(F)(F)F)c3)CC2)cc1=O	i
122	Cc1ccc(Oc2cccc(C(=O)Nc3cnc(-n4cccn4)nc3)c2)nn1	i
123	Cc1ccc(C)c(S(=O)(=O)Nc2cnc(N3CCOCC3)nc2)c1	i
124	NC(=O)C1CCN(C(=O)c2cc(-c3ccncc3)nc3ccccc23)CC1	i
125	CCOc1ccc(-c2ccc(=O)n(Cc3nc(-c4cc(OC)c(OC)c(OC)c4)no3)n2)cc1	i
126	Fc1ccc(Nc2nc(-c3cccc(Cl)c3)cs2)nc1	i
127	Cc1cc(C)c(NC(=O)Cn2nc3c(Sc4ccccc4)nccn3c2=O)c(C)c1	i
128	O=C(CCCn1cccc1)Nc1nc(-c2ccco2)cs1	i
129	O=C(Nc1ccc2sccc2c1)C1CCN(S(=O)(=O)c2ccc(Cl)cc2)CC1	i
130	Cc1ccc(C2=NC3(CCN(CC(=O)Nc4ccccc4C(F)(F)F)CC3)NC2=O)cc1	i

# Some of the compounds tested. The share of hits here may be higher or lower than overall.
